Screening data from PubChem BioAssay.
Measles inh = inhibitors of measles virus growth in infected cells. infected Vero cells, GFP fluorescence, 64 h; hits give low values. z-score (no concentration beside the values). 33,000 tested, 0.1% active. AID 745;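 active means z-score under -3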;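 further: score is relative to mean and SD of the compound wells of a plate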
Starred values were filed as active, the others as inactive. An excerpt; count on the stated rates, not on these rows.

canonical_smiles	Measles inh
CCNC1=C(C(=O)c2ccccc2)N(CC(=O)c2ccc(Br)cc2)S(=O)(=O)c2ccccc21	-1.6
CC(C)(C)C(=O)Nc1c[nH]c(=O)[nH]c1=O	-0.99
Cc1ccc(CCC(=O)Nc2ncc(Cc3ccc(F)cc3)s2)o1	0.36
C=CCN(c1ccccc1)S(=O)(=O)c1ccc(F)c(C(=O)Nc2ccc(C)c(C)c2)c1	0.03
CCOC(=O)c1nn(-c2ccc(OC)cc2)c(=O)c2c(NC(=O)C3c4ccccc4Oc4ccccc43)scc12	-1.2
COc1cccc(NC(=O)c2ccc(N(Cc3ccccc3)S(C)(=O)=O)cc2)c1	-0.78
Cc1ccc(C)c(S(=O)(=O)Nc2ccc(O)c3ccccc23)c1	0.12
O=C(c1ccc(Cl)cc1)c1cc([N+](=O)[O-])ccc1N1CCOCC1	0.76
CC1(C)CC(=O)NC1(C)O (centres undefined)	0.46
CC(=O)c1ccc(Nc2ccc3nonc3c2[N+](=O)[O-])cc1	2.5
COc1ccccc1NC(=O)c1ccc2c(=O)n(Cc3ccccc3)c(=S)[nH]c2c1	-0.26
O=c1[nH]c2cc([N+](=O)[O-])ccc2nc1Cc1ccc(Cl)c([N+](=O)[O-])c1	-0.42
O=C(CN1CCCCC1)N1c2ccccc2CCc2ccccc21	-0.26
CCC(=O)N1c2ccccc2NC2=C(C(=O)CC(c3ccc(Cl)cc3)C2)C1c1ccccc1Cl (centres undefined)	-0.28
CCSc1nnc2c(n1)OC(c1cc3c(cc1Br)OCO3)Nc1ccccc1-2 (centres undefined)	-0.79
COC(=O)c1ccc(C2Nc3cc(C)c(C)cc3NC3=C2C(=O)CC(C)(C)C3)cc1 (centres undefined)	1.5
COc1ccc(NC(=O)C2C3C=CC4(O3)C2C(=O)N(C2CCCCC2)C4C(=O)NC2CCCC(C)C2C)cc1 (centres undefined)	2
COC(=O)c1ccc(C2C=C(c3ccc(Cl)cc3)Nc3nc4ccccc4n32)cc1 (centres undefined)	-0.29
COCCOC(=O)C1=C(C)NC(=O)NC1c1cc(Br)c(O)c(OC)c1 (centres undefined)	1.1
COc1ccc(-c2coc3c(C)c4oc(=O)c5c(c4cc23)CCCC5)cc1F	0.81

Reprinted from the part before: four entries; new compounds follow.
canonical_smiles	Measles inh
COc1ccc(NC(=O)C2C3C=CC4(O3)C2C(=O)N(C2CCCCC2)C4C(=O)NC2CCCC(C)C2C)cc1 (centres undefined)	2
COC(=O)c1ccc(C2C=C(c3ccc(Cl)cc3)Nc3nc4ccccc4n32)cc1 (centres undefined)	-0.29
COCCOC(=O)C1=C(C)NC(=O)NC1c1cc(Br)c(O)c(OC)c1 (centres undefined)	1.1
COc1ccc(-c2coc3c(C)c4oc(=O)c5c(c4cc23)CCCC5)cc1F	0.81
NS(=O)(=O)c1ccc(CCn2c(=S)[nH]c3ccc(Cl)cc3c2=O)cc1	-0.53
CC1=CC(C)(C)N(C(=O)CSc2nc3ccccc3o2)c2cc(C)ccc21	-1.7
CC1CCCC(NC(=O)c2cc(-c3cccs3)nc3ccccc23)C1C (centres undefined)	0.08
O=c1[nH]c2sc3c(c2c(=O)n1Cc1ccccc1)CCCC3	1.1
CC(=O)C1CC(CC(N)=O)C1(C)C (centres undefined)	0.39
Cc1ccc(C(=O)Nc2cc(C)c3c(=O)oc4ccccc4c3n2)cc1	1.5
CCCOc1ccc(C2C(C(=O)OCC)=C(C)NC3=C2C(=O)CC(c2ccccc2)C3)cc1OC (centres undefined)	-0.66
O=C(NCCc1ccccc1)C1CCC(Cn2c(=O)c3ccccc3n(Cc3cccc([N+](=O)[O-])c3)c2=O)CC1 (centres undefined)	-0.55
CCOC(=O)c1cnc2cc(Cl)c(OC)cc2c1Nc1cccc(OC)c1	-0.38
COc1ccc(C)cc1NC(=O)Cn1c(=O)oc2ccccc21	0.17
Cc1cc(C)n(S(=O)(=O)c2ccccc2[N+](=O)[O-])n1	-0.63
Cn1c(=O)[nH]c(=O)c2c1ncn2Cc1ccccc1F	-0.02
CC1CC(C)CN(S(=O)(=O)c2ccc(C(=O)Nc3sc4c(c3-c3nc5ccccc5s3)CCN(C)C4)cc2)C1 (centres undefined)	5.7
N#Cc1c(-c2cccc(Br)c2)cc(C2CC2)nc1N	0.62
COC(=O)c1c(NC(=O)CCCOc2ccccc2)sc2c1CCC(C)C2 (centres undefined)	-0.46
Cc1ccc2nc3c(nc2c1)-c1ccccc1C3=O	0.63
O=C(Nc1nc2ccccc2s1)C1CCCN1S(=O)(=O)c1ccc(Cl)cc1 (centres undefined)	-0.34
CCCCC1CCC(C(=O)Nc2c3c(nn2-c2ccc(OC)cc2)CSC3)CC1 (centres undefined)	-0.17
COc1ccc(N(C)C(=O)Cc2c(C(=O)O)n(C)c3ccccc23)c(OC)c1	-0.04
COc1ccc(C)cc1NC(=O)c1cnc2n(c1=O)CCS2	-0.52
Cn1c(C(=O)NC2CCCCCC2)cc2c(=O)[nH]c3ccccc3c21	-0.63
COc1cc(OC)cc(C(=O)Nc2nc3ccc4nc(SC)sc4c3s2)c1	-0.62
O=[N+]([O-])c1ccc(Oc2ccc(S(=O)(=O)Nc3ccccc3)cc2)cc1	-1.8
O=C(c1ccc(-n2c(=S)[nH]c3ccccc3c2=O)cc1)N1CCCCCC1	-0.11
CCOC(=O)c1cnc2c(C)cc(Cl)cc2c1NCC(C)O (centres undefined)	-0.63
COc1ccc(NC(=O)CN2CCN(S(=O)(=O)c3cccc([N+](=O)[O-])c3)CC2)cc1OC	1.5
CCCC12CN3CC(CCC)(CN(C1)C3c1ccc(OC)c(OC)c1)C2=O (centres undefined)	-0.68
Cc1cc(C(=O)N2CCN(C)CC2)ccc1[N+](=O)[O-]	-0.06
CCN1CCN(c2ncnc3sc4c(c23)CCC(C)C4)CC1 (centres undefined)	1.8
Cc1cccc(CN2CCN(CC(=O)N3CCCCCC3)C2=O)c1	0.65
CCOC(=O)C1=C(C)Nn2c(nc3ccccc3c2=O)S1	-0.24
COC(=O)c1cccc(Nc2nc(-c3ccccc3Cl)nc3ccccc23)c1	-1
COc1cccc(OC)c1C(=O)Nc1nc2ccc3nc(C)sc3c2s1	1.1
O=C(c1ccc(SCc2cccnc2)c([N+](=O)[O-])c1)N1CCCC1	0.15
COc1ccc(OCC2c3cc(OC)c(OC)cc3CCN2C(=O)C23CC4CC(CC(C4)C2)C3)cc1 (centres undefined)	-0.01
COc1ccc(-c2nc3ccccc3c(=O)o2)cc1OC	-0.57
O=C(Nc1ccc(Cl)c(C(=O)N2CCOCC2)c1)c1ccccc1	0.04
COC(=O)C1=CN(C2CC2)C=C(C(=O)OC)C1c1cc(OC)c(OC)c(OC)c1	-0.17
O=C(Nc1ccccc1OC(F)(F)F)c1cccs1	1.5
Cc1ccc(C)c(Cc2c(C)nc3c(C(=O)NC(C)C)cnn3c2C)c1	-0.73

Part of the list above, as labelled records.
Cc1cccc(CN2CCN(CC(=O)N3CCCCCC3)C2=O)c1
  Measles inh: 0.65

CCOC(=O)C1=C(C)Nn2c(nc3ccccc3c2=O)S1
  Measles inh: -0.24

COC(=O)c1cccc(Nc2nc(-c3ccccc3Cl)nc3ccccc23)c1
  Measles inh: -1

COc1cccc(OC)c1C(=O)Nc1nc2ccc3nc(C)sc3c2s1
  Measles inh: 1.1

Following part.
canonical_smiles	Measles inh
CCOC(=O)C1C(=O)C=C(c2ccco2)CC1c1ccccc1 (centres undefined)	-2.7
O=C1NCCCCC1NS(=O)(=O)c1cccc2nsnc12 (centres undefined)	1.1
CCc1cc2c(=O)c(-c3nc4ccccc4s3)coc2cc1OC(=O)c1ccco1	0.96
CC(=O)Oc1ccc(C2C(C(=O)OCC(C)C)=C(C)NC3=C2C(=O)CC(c2cccs2)C3)cc1 (centres undefined)	-0.49
Cc1c(Br)c([N+](=O)[O-])nn1CC(=O)NCc1cccs1	1
COC(=O)Cc1nc(Nc2ccc(C)c(Cl)c2)c2c(C)c(C)sc2n1	1.1
Cc1ccc(-c2csc(NC(=O)c3ccc(Cl)cc3)n2)cc1C	0.41
O=C(c1cccn2c(=O)c3ccc(Cl)cc3nc12)N1CCc2ccccc2C1	0.02
O=C(Nc1cccc(C(F)(F)F)c1)c1ccc2ccccc2c1	-0.52
COc1cc(OC)c(NC(=O)CSc2nc3[nH]ncc3c(=O)n2-c2ccccc2OC)cc1Cl	-2
O=c1c(Cl)c(N2CCc3ccccc3C2)cnn1-c1ccccc1	1.3
CCc1ccc(Sc2cc(C(=O)NCCN3CCOCC3)c3ccccc3n2)cc1	-0.8
Clc1ccc2nc(CSc3nc4ccccc4s3)cn2c1	-0.16
O=C(CSc1nc2ccccc2s1)NCC12CC3CC(CC(C3)C1)C2	0.68
CCNCCNC(=O)c1c(O)c2cc(F)cc3c2n(c1=O)C(C)CC3 (centres undefined)	-0.98
Cc1cccc(N(CC(=O)Nc2c(C)n(C)n(-c3ccccc3)c2=O)S(=O)(=O)c2ccccc2)c1C	0.19
CN(C(=O)CCn1c(=S)oc2ccccc21)c1ccc(F)cc1	-0.02
O=[N+]([O-])c1ccc(Oc2ccc(S(=O)(=O)Nc3ccc4c(c3)OCCO4)cc2)cc1	-1.2
COc1ccc(NC(=O)c2cc3ccc(O)cc3oc2=O)cc1	0.97
COc1ccc(NC(=O)Cc2c(C(=O)O)[nH]c3ccc(Cl)cc23)cc1Cl	-1
COc1cc(NS(=O)(=O)c2ccc(NC(=O)c3ccc(OC)c(OC)c3)cc2)ncn1	-1.1
COC(=O)c1ccc(-n2nnnc2SCC(=O)Nc2ccc(C)c(C)c2)cc1	0.94
COc1ccc(C2CC(=O)C3=C(C2)Nc2ccccc2N(C(=O)CCC(=O)O)C3c2ccc(C)cc2)cc1OC (centres undefined)	-0.06
O=C(O)CNCc1ccc(F)cc1	-0.33
COc1ccc(-c2nc3ccccc3n2Cc2ccc(Cl)cc2)cc1	0.98
COc1cccc(NS(=O)(=O)c2ccc3c(c2)CCN3C(=O)C2CC2)c1	-0.63
COc1ccc(C(=O)Nc2ccc(-c3cc4ccccc4oc3=O)c(C)c2)cc1OC	0.56
COc1ccccc1N1CCN(C(=O)CCCCCn2c(=O)[nH]c3ccccc3c2=O)CC1	0.58
CCNC(=O)N/C(N)=N/c1nc2ccccc2o1	0.68
Cc1c(Cc2ccccc2)c(N2CCOCC2)n2c(nc3ccccc32)c1C#N	-1.3
Cc1ccc(C2C(C(=O)c3ccco3)=C(O)C(=O)N2CCN2CCOCC2)o1 (centres undefined)	0.97
Cc1cc(Br)ccc1NS(=O)(=O)c1cccnc1	1.4
CSc1ccccc1NC(=O)c1ccc(N2CC3CC(C2)c2cccc(=O)n2C3)c(NC(=O)c2ccncc2)c1 (centres undefined)	0.01
CCn1c(SCC(=O)N2CCN(c3ccccc3)CC2)nc2c(c1=O)SC(C)C2 (centres undefined)	-0.23
Cc1cc(Br)ccc1NC(=O)CCS(=O)(=O)c1ccc(Br)s1	0.07
O=C1C(=O)N(c2nccs2)C(c2cccc([N+](=O)[O-])c2)/C1=C(\O)c1ccc(Cl)cc1 (centres undefined)	-0.77
Cc1c(C(=O)NC(C)CCc2ccccc2)oc2ccc(S(=O)(=O)N3CC(C)CC(C)C3)cc12 (centres undefined)	0.17
O=C(NCc1ccccc1)C1CCN(S(=O)(=O)c2cccs2)CC1	0.23
Cc1cc(C)n(C(=O)CCC(=O)n2nc(C)cc2C)n1	0.43
CCOC(=O)c1c(-c2ccccc2)c2cc([N+](=O)[O-])ccc2[nH]c1=O	-1.1
OC1(C(F)(F)F)CC(c2ccccc2)=NN1c1nncc(-c2ccccc2)n1 (centres undefined)	-0.29
CN(C)c1ccc(Nc2nc(-c3ccc([N+](=O)[O-])cc3)nc3ccccc23)cc1	-0.04
CCOc1ccccc1NC(=O)c1nn(-c2ccc(OC)cc2)c(=O)c2ccccc12	-0.49
COc1ccc(S(=O)(=O)CCC(=O)NCc2ccc(C)cc2)cc1	-0.71
N=c1nc(-c2ccccc2)ccn1O	-0.1
C=CCOC(=O)C1=C(C)N=C2SCCC(=O)N2C1c1ccc(OC(C)=O)cc1 (centres undefined)	0.53
Cc1cccn2c(=O)c3cc(C(=O)N4CCN(c5cccc(Cl)c5)CC4)sc3nc12	-1.4
Cc1ccc(C(=O)N2CCN(c3ncccn3)CC2)o1	-0.51
O=C(Nc1ccccc1-c1nc2ccccc2s1)c1cccc2ccccc12	-0.9
CCOC(=O)c1ccc(N2C(=S)NC3CC2(C)Oc2c(OCC)cccc23)cc1 (centres undefined)	-0.21
CCOC(=O)C1=CN(c2ccc(C)cc2)C=C(C(=O)OCC)C1c1ccc2c(c1)OCO2	0.43
CCOC(=O)C1C(=O)C=C(c2cccs2)CC1c1cccc(OC)c1 (centres undefined)	-1.8
O=C(NCc1ccccc1)C1CCCN(S(=O)(=O)c2cccs2)C1 (centres undefined)	2.5
Cc1ccc(S(=O)(=O)Nc2ccccc2C(=O)Nc2ccccc2C(=O)Nc2ccccc2)cc1	-0.25
Cc1ccnc(SC2CC(=O)N(c3ccccc3)C2=O)n1 (centres undefined)	1.3
CS(C)=C1C(=O)NC(=O)N(c2ccccc2F)C1=O	-0.16
C=CCOC(=O)C1=C(C)NC(=S)NC1c1ccc(OC)cc1 (centres undefined)	-0.34
CCCCOc1ccc(-c2nc3c(C(=O)OC)c[nH]n3c2NC2CCCCC2)cc1	-0.36
COc1ccc(C)cc1NC(=O)CNC(=O)Cn1c(C)cc2ccccc2c1=O	0.55
Cc1ccc(C(=O)N2C(C(=O)O)CSC2c2ccccc2Cl)cc1 (centres undefined)	-0.16
CC(C)(C)n1nc2c(c1NC(=O)c1cccc([N+](=O)[O-])c1)CSC2	0.61
Cn1c(-c2ccc3ccccc3n2)[n+](C)c2ccccc21	0.36
